# A1 apoptosis 2 = blocks A1, raising caspase activity. caspase activation, % (test concentration not listed). MEF A1-2A-BIM cells, caspase-Glo luminescence, 3 h; percent of clofoctol response, DMSO zero. 24,000 tested, under 10 active; in the data active = caspase activation above about 5.9%;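 note: wells of about 30 µL received 50 nL stock; the first replicate is given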
#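 Evaluation: Caspase-3/7 activity from luminescence increase | Assay system: A1-2A-BIM mouse embryonic fibroblasts | Quantity: 2500 MEF cells/well | Medium: RPMI-1640 plus 10% FBS | Detection: Caspase-Glo 3/7 luminescence, 1 h at room temperature | Dosing: 50 nL compound per well, pinned | Timing: Cells settled overnight, compound exposure 3 h at 37 °C, 5% CO2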
# * hit, by the source's call.
SMILES	A1 apoptosis 2
C[C@@H]1CN([C@@H](C)CO)C(=O)c2cc(NS(=O)(=O)c3ccc(Cl)cc3)ccc2O[C@@H](C)CCCCO[C@@H]1CN(C)C(=O)c1ccccc1	-0.8
Cc1noc(C)c1S(=O)(=O)N(C)C[C@@H]1OCCCC[C@H](C)Oc2ccc(NC(=O)CCCN(C)C)cc2C(=O)N([C@H](C)CO)C[C@@H]1C	-0.8
CC(C)NC(=O)N(C)C[C@@H]1OCCCC[C@H](C)Oc2ccc(NS(=O)(=O)c3ccccc3)cc2C(=O)N([C@@H](C)CO)C[C@@H]1C	0.8
COc1ccc(S(=O)(=O)N(C)C[C@@H]2Oc3ccc(NS(=O)(=O)c4cn(C)cn4)cc3C(=O)N([C@@H](C)CO)C[C@H]2C)cc1	0.9
C[C@@H]1CCCCO[C@@H](CN(C)C(=O)Nc2ccc3c(c2)OCO3)[C@H](C)CN([C@H](C)CO)C(=O)c2cc(NC(=O)Nc3ccc(C(F)(F)F)cc3)ccc2O1	0.3
C[C@@H]1CN([C@H](C)CO)C(=O)c2cccc(NS(=O)(=O)c3ccccc3)c2O[C@@H]1CN(C)C(=O)Nc1ccc2c(c1)OCO2	-0.6
COc1ccc([Si](C)(C)[C@@H]2[C@@H](CC(=O)N3CCC[C@H]3CO)O[C@]3(C(=O)N(Cc4ccc(I)cc4)c4ccccc43)[C@H]2C)cc1	0.4
C[C@@H]1CN([C@H](C)CO)C(=O)c2cc(NC(=O)Cc3cn(C)c4ccccc34)ccc2O[C@H]1CN(C)Cc1ccc(Oc2ccccc2)cc1	-1.4
C[C@@H]1CN([C@H](C)CO)C(=O)c2cc(NC(=O)Nc3ccc4c(c3)OCO4)ccc2O[C@H]1CN(C)S(=O)(=O)c1cn(C)cn1	0.2
Cc1noc(C)c1NC(=O)Nc1cccc2c1O[C@H](CN(C)C(=O)Nc1ccc3c(c1)OCO3)[C@@H](C)CN([C@H](C)CO)C2=O	-0.4
Cc1ccc(S(=O)(=O)N(C)C[C@@H]2OCCCC[C@H](C)Oc3ccc(NC(=O)c4ccncc4)cc3C(=O)N([C@H](C)CO)C[C@@H]2C)cc1	-0.7
Cc1noc(C)c1NC(=O)N(C)C[C@H]1Oc2ccc(NC(=O)CCC(F)(F)F)cc2CC(=O)N([C@H](C)CO)C[C@H]1C	0.7
O=C(NO)c1cccc(C(=O)N/N=C/c2cccc(Br)c2)c1	0.2
C[C@H]1CN([C@@H](C)CO)C(=O)Cc2cc(NC(=O)Cc3cn(C)c4ccccc34)ccc2O[C@@H]1CN(C)Cc1ccc(C(=O)O)cc1	0.4
COc1ccc(S(=O)(=O)N(C)C[C@H]2Oc3ccc(NS(C)(=O)=O)cc3CC(=O)N([C@H](C)CO)C[C@@H]2C)cc1	0.0
C/C=C(C)\C=N\NC(=O)CCCCCCC(=O)Nc1ccccc1O	0.2
C[C@@H]1CN([C@@H](C)CO)C(=O)c2cccc(NC(=O)C3CC3)c2O[C@H]1CN(C)CC1CCCCC1	-1.3
C[C@@H]1CN([C@@H](C)CO)C(=O)c2cc(NS(=O)(=O)c3ccc(Cl)cc3)ccc2O[C@@H]1CN(C)C(=O)Nc1ccc2c(c1)OCO2	-0.7
C[C@@H]1CCCCO[C@H](CN(C)Cc2ccc3c(c2)OCO3)[C@H](C)CN([C@@H](C)CO)C(=O)c2cc(NC(=O)CCCN(C)C)ccc2O1	-0.2
Cc1noc(C)c1S(=O)(=O)Nc1ccc2c(c1)C(=O)N([C@@H](C)CO)C[C@@H](C)[C@H](CN(C)C(=O)NC(C)C)OCCCC[C@H](C)O2	1.9
C[C@H]1CN([C@@H](C)CO)C(=O)c2cccc(NC(=O)Nc3ccccc3)c2O[C@@H]1CN(C)Cc1ccc(Oc2ccccc2)cc1	-0.3
COCCOC(=O)N1C(=O)[C@@]2(c3ccccc31)[C@H](c1ccc(OCCO)cc1)N1[C@H](c3ccccc3)[C@H](c3ccccc3)OC(=O)[C@H]1[C@@H]2C(=O)Nc1nc2ccccc2s1	-0.8
COC(=O)CCCCCCC(=O)N/N=C/c1ccccc1O	-0.1
C[C@@H]1CN([C@@H](C)CO)C(=O)Cc2cc(NC(=O)Nc3ccc(C(F)(F)F)cc3)ccc2O[C@H]1CN(C)CC1CC1	0.9
COc1ccc(C#Cc2cnc3c(c2)C(=O)N([C@H](C)CO)C[C@H](C)[C@H](CN(C)Cc2cccc(C(F)(F)F)c2)O3)cc1OC	-0.4
CC(C)NC(=O)Nc1ccc2c(c1)CC(=O)N([C@H](C)CO)C[C@@H](C)[C@H](CN(C)C(=O)NC(C)C)O2	-0.2
C[C@@H]1CN([C@H](C)CO)C(=O)c2cc(NC(=O)NC3CCCCC3)ccc2O[C@@H]1CN(C)Cc1ccc(C(F)(F)F)cc1	-0.2
C[C@H](CO)N1C[C@H](C)[C@@H](CN(C)Cc2ccc(C(=O)O)cc2)Oc2ccc(NC(=O)c3ccncc3)cc2CC1=O	-0.2
CN1CCN(C(=O)C2=C[C@@H](c3ccc(C(F)(F)F)cc3)C[C@@H](OCc3ccc(CO)cc3)O2)CC1	0.1
C[C@H](CO)N1C[C@H](C)[C@H](CN(C)C(=O)Nc2ccc(F)cc2)Oc2ccc(NC(=O)Nc3ccc4c(c3)OCO4)cc2CC1=O	0.0
C[C@H]1CN([C@@H](C)CO)C(=O)c2cccc(NC(=O)Nc3ccc(F)cc3)c2O[C@H]1CN(C)C(=O)Nc1ccc(F)cc1	-0.3
CNC[C@H]1Oc2ccc(NC(=O)c3ccncc3)cc2CC(=O)N([C@H](C)CO)C[C@H]1C	0.9
C[C@@H]1CN([C@@H](C)CO)C(=O)c2cc(NC(=O)CCN3CCOCC3)ccc2O[C@@H]1CN(C)CC1CCCCC1	-0.5
C[C@@H]1CN([C@@H](C)CO)C(=O)Cc2cc(NC(=O)Cn3cnnn3)ccc2O[C@H]1CN(C)CC1CC1	0.9
C[C@@H]1CN([C@H](C)CO)C(=O)c2cc(NS(=O)(=O)c3cccs3)ccc2O[C@@H]1CN(C)CC1CCCCC1	-0.6
C[C@@H]1CCCCO[C@@H](CN(C)C(=O)CCCN(C)C)[C@H](C)CN([C@H](C)CO)C(=O)c2cc(N(C)C)ccc2O1	0.6
COC(=O)CCCCCCC(=O)N/N=C/c1cccc(O)c1O	1.0
CNC[C@H]1OCCCC[C@@H](C)Oc2ccc(NS(=O)(=O)c3c(C)noc3C)cc2C(=O)N([C@@H](C)CO)C[C@H]1C	-0.7
COc1cccc(-c2cnc3c(c2)C(=O)N([C@H](C)CO)C[C@H](C)[C@H](CN(C)S(=O)(=O)c2ccc(C#N)cc2)O3)c1	0.6
C[C@H](CO)N1C[C@H](C)[C@@H](CN(C)S(C)(=O)=O)Oc2c(NC(=O)CCCCCC(=O)Nc3ccccc3N)cccc2C1=O	-1.3
C[C@H](CO)N1C[C@H](C)[C@@H](CN(C)Cc2ccccc2)OCCCC[C@H](C)Oc2ccc(NC(=O)Nc3ccc4c(c3)OCO4)cc2C1=O	-0.3
C[C@@H]1CCCCO[C@@H](CN(C)C(=O)Nc2ccc(C(F)(F)F)cc2)[C@@H](C)CN([C@H](C)CO)C(=O)c2cc(NS(=O)(=O)c3cn(C)cn3)ccc2O1	0.8
Cc1ccc(S(=O)(=O)N(C)C[C@H]2OCCCC[C@H](C)Oc3ccc(NC(=O)NC4CCCCC4)cc3C(=O)N([C@H](C)CO)C[C@@H]2C)cc1	0.1
C[C@H]1CCCCO[C@H](CN(C)Cc2ccncc2)[C@@H](C)CN([C@@H](C)CO)C(=O)c2cc(NS(=O)(=O)c3ccccc3)ccc2O1	-0.4
C[C@H](CO)N1C[C@H](C)[C@H](CN(C)C(=O)NC2CCCCC2)Oc2ccc(NC(=O)Nc3ccc(C(F)(F)F)cc3)cc2CC1=O	-0.5
C[C@@H]1CN([C@H](C)CO)C(=O)Cc2cc(NS(=O)(=O)c3cn(C)cn3)ccc2O[C@@H]1CN(C)S(=O)(=O)c1cn(C)cn1	0.6
Cc1ccc(S(=O)(=O)Nc2cccc3c2O[C@@H](CN(C)Cc2ccc(C(=O)Nc4ccccc4N)cc2)[C@@H](C)CN([C@H](C)CO)C3=O)cc1	-0.1
C[C@H]1CN([C@@H](C)CO)C(=O)c2cccc(NC(=O)Nc3cccc4ccccc34)c2O[C@H]1CN(C)S(C)(=O)=O	0.9
O=C(N/N=C/c1ccc2c(c1)CCO2)c1ccccn1	-9.2
C[C@@H]1CN([C@@H](C)CO)C(=O)CCCn2cc(nn2)CO[C@H]1CN(C)CC1CCCCC1	-0.9
C[C@@H]1CN([C@H](C)CO)C(=O)c2cccc(NC(=O)Nc3ccccc3)c2O[C@H]1CN(C)S(=O)(=O)c1cn(C)cn1	-0.9
C[C@@H]1CN([C@@H](C)CO)C(=O)c2cc(NC(=O)CCN3CCOCC3)ccc2O[C@@H]1CN(C)C(=O)Nc1ccc(F)cc1	-0.2
C[C@H]1CCCCO[C@@H](CN(C)C(=O)Nc2ccc(F)cc2)[C@@H](C)CN([C@@H](C)CO)C(=O)c2cc(NS(=O)(=O)c3ccccc3)ccc2O1	-2.6
O=S(=O)(c1ccccc1)N1CCN(Cc2cccc(OCCO)c2)CC1	-0.3
C[C@@H]1CN([C@@H](C)CO)C(=O)CCCn2nncc2CO[C@@H]1CN(C)S(=O)(=O)c1ccc2ccccc2c1	-0.7
C[C@H]1CCCCO[C@H](CN(C)C(=O)Nc2ccccc2)[C@@H](C)CN([C@@H](C)CO)C(=O)c2cc(NC(=O)C3CCCCC3)ccc2O1	1.9
C[C@@H]1CN([C@@H](C)CO)C(=O)c2cc(NC(=O)Nc3ccc(F)cc3)ccc2O[C@H]1CN(C)Cc1ccc(C(=O)O)cc1	0.8
C[C@@H]1CCCCO[C@H](CN(C)C(=O)Cc2ccccc2)[C@@H](C)CN([C@H](C)CO)C(=O)c2cc(NC(=O)CCC(F)(F)F)ccc2O1	-0.5
C[C@H](CO)N1C[C@H](C)[C@H](CN(C)Cc2ccc3c(c2)OCO3)Oc2ccc(NC(=O)Nc3cccc4ccccc34)cc2CC1=O	1.4
COC(=O)c1ccc([C@@H]2C=C(C(=O)N3CCN(Cc4ccc5c(c4)OCO5)CC3)O[C@H](OCc3ccc(CO)cc3)C2)cc1	0.4

# Compounds listed so far containing a COOH group:
SMILES	A1 apoptosis 2
C[C@H]1CN([C@@H](C)CO)C(=O)Cc2cc(NC(=O)Cc3cn(C)c4ccccc34)ccc2O[C@@H]1CN(C)Cc1ccc(C(=O)O)cc1	0.4
C[C@H](CO)N1C[C@H](C)[C@@H](CN(C)Cc2ccc(C(=O)O)cc2)Oc2ccc(NC(=O)c3ccncc3)cc2CC1=O	-0.2
C[C@@H]1CN([C@@H](C)CO)C(=O)c2cc(NC(=O)Nc3ccc(F)cc3)ccc2O[C@H]1CN(C)Cc1ccc(C(=O)O)cc1	0.8

# Retrieved by structure from the list above:
SMILES	A1 apoptosis 2
COC(=O)c1ccc([C@@H]2C=C(C(=O)N3CCN(Cc4ccc5c(c4)OCO5)CC3)O[C@H](OCc3ccc(CO)cc3)C2)cc1	0.4
C[C@@H]1CN([C@@H](C)CO)C(=O)CCCn2nncc2CO[C@@H]1CN(C)S(=O)(=O)c1ccc2ccccc2c1	-0.7
Cc1ccc(S(=O)(=O)Nc2cccc3c2O[C@@H](CN(C)Cc2ccc(C(=O)Nc4ccccc4N)cc2)[C@@H](C)CN([C@H](C)CO)C3=O)cc1	-0.1

# (listing goes on)
SMILES	A1 apoptosis 2
C[C@H](CO)N1C[C@H](C)[C@H](CN(C)Cc2ccncc2)Oc2ccc(NC(=O)CCCCCC(=O)Nc3ccccc3N)cc2C1=O	1.5
Cc1noc(C)c1NC(=O)Nc1cccc2c1O[C@@H](CN(C)Cc1ccc3c(c1)OCO3)[C@@H](C)CN([C@@H](C)CO)C2=O	0.1
C[C@@H]1CN([C@@H](C)CO)C(=O)c2cc(NC(=O)c3ccncc3)ccc2O[C@@H]1CN(C)S(=O)(=O)c1ccc(Cl)cc1	-0.7
CCO[C@@H]1OC(C(=O)O)=C[C@H](c2csc3ccccc23)[C@H]1CCCO	0.0
Cc1ccc(S(=O)(=O)N(C)C[C@@H]2OCCCC[C@H](C)Oc3ccc(NC(=O)CCC(F)(F)F)cc3C(=O)N([C@@H](C)CO)C[C@@H]2C)cc1	-1.1
C[C@H]1CN([C@@H](C)CO)C(=O)Cc2cc(NS(=O)(=O)c3ccc(F)cc3)ccc2O[C@H]1CN(C)C	0.6
Cc1ccc(S(=O)(=O)N[C@@H](Cc2ccccc2)C(=O)NCCCN=[N+]=[N-])cc1	-1.7
C[C@H]1CCCCO[C@@H](CN(C)Cc2ccncc2)[C@@H](C)CN([C@@H](C)CO)C(=O)c2cc(NS(=O)(=O)c3ccc(F)cc3)ccc2O1	0.2
COc1ccc(NC(=O)N(C)C[C@@H]2Oc3c(NC(=O)C4CC4)cccc3C(=O)N([C@@H](C)CO)C[C@H]2C)cc1	1.9
C[C@H](CO)N1C[C@H](C)[C@H](CN(C)C(=O)Nc2ccc(F)cc2)OCCCC[C@H](C)Oc2ccc(NC(=O)Nc3ccccc3)cc2C1=O	1.3
C[C@@H]1CN([C@@H](C)CO)C(=O)c2cccc(NC(=O)CCCCCC(=O)Nc3ccccc3N)c2O[C@@H]1CN(C)Cc1ccc2c(c1)OCO2	0.6
C[C@H]1CN([C@@H](C)CO)C(=O)Cc2cc(NS(=O)(=O)c3ccc(Cl)cc3)ccc2O[C@@H]1CN(C)Cc1ccc2c(c1)OCO2	-0.5
C[C@@H]1CN([C@H](C)CO)C(=O)c2cc(NC(=O)CCN3CCOCC3)ccc2O[C@H]1CN(C)S(=O)(=O)c1cccs1	-1.0

# Screening results as filed in PubChem.

# A portion of the library (hit frequency here may not be typical).
